Source: PubChem (several laboratories)
RGS16-Gao HTS = RGS16-Galphao interaction regulator (human); O15492+P09471; bead-based flow cytometry RGS16-Galphao binding, fluorescence; actives lie on both sides; binding response (% of control), % at 10 µM; 0.38% of 220,000 active;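 active = below 25% or above 175%, edge rows of some plates excepted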;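 note: Galphao activated by GDP with aluminum fluoride before binding; 100% = wells without compound and 0% = beads without RGS; some results beyond the cut were filed as inactive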
Target sequence (O15492 whole entry, looked up): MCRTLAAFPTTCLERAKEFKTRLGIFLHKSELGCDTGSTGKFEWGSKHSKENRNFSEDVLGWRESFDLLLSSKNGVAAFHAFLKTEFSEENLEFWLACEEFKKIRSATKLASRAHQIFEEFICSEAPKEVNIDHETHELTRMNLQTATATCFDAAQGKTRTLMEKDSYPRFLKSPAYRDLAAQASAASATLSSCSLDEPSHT
Target sequence (P09471 whole entry, looked up): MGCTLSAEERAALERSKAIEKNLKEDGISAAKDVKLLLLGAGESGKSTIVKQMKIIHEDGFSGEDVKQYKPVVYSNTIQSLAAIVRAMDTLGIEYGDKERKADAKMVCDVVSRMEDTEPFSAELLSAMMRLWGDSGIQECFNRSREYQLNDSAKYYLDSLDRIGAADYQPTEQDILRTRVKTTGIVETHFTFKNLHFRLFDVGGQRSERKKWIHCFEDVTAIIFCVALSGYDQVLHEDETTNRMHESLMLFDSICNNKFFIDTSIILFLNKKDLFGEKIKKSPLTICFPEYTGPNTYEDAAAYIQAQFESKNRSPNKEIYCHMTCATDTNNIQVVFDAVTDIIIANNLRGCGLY
HSV replic up = increases HSV replication in cells; HSV replication augmentation in cells, fold increase; maximum fold increase; 0.005% of 220,000 active;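 active = peak rise of 1.5-fold or more in the series; inconclusive = self-fluorescent or not available for retest; tested in PC3 cells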;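 note: first round at 10 µM; read as green reporter fluorescence; hits show the peak of a series up to 25 µM; 1 = signal of infected wells without compound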
GALR2 agonist = agonists of human galanin receptor 2 (GALR2) | O43603 | GALR2-expressing cells, agonist activation read-out | activation, %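 (tested at 5 µM)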 | 0.48% of 140,000 active;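 active = above mean plus 3 SD of all compounds, about 5% in these data, not always enough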;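 note: 0% = vehicle buffer wells and 100% = reference agonist at full effect; tested in CHO reporter cells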
Target sequence (O43603 whole entry, looked up): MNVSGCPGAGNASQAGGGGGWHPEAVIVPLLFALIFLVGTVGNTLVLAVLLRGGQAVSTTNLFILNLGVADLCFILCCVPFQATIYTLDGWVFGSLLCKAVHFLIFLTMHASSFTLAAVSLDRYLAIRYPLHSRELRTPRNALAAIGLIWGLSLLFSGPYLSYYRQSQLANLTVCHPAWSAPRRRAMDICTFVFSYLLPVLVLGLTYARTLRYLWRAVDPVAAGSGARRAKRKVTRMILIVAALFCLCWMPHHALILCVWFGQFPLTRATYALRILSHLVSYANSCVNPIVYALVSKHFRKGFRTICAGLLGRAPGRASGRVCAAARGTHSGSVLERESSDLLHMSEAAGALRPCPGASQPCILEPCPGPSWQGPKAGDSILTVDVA
Insulin prom inh = TRM-6 insulin promoter activity inhibition | TRM-6 cells (human fetal islet line), insulin promoter-eGFP reporter, imaging; reporter expression induced with tamoxifen | inhibition, % at 2 µM | 0.9% of 130,000 active | AID 1273;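 active = inhibition above the mean plus 3 SD, with well images judged a real hit on visual review, cut at about 60% in these data, passing the limit was not always enough; inconclusive = inhibition over the cutoff but images rejected on review; inactive = inhibition not above the cutoff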
PKD1 inh = PKD1 (human) kinase inhibition; PKD1 kinase fluorescence polarization assay; inhibition, %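 (about 10 µM by stock and volumes)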; 0.056% of 200,000 active;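 active = inhibition of 50% or more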;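 note: controls were vehicle for no effect and a reference inhibitor for full effect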
Insulin prom inh cell count = second read-out of Insulin prom inh, no call of its own (marks repeat the call); normalized cell count, %; measured here: cell count, toxicity; reference of the scale not given here;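 cells exposed to compound for 48 h; stained nuclei by imaging scaled within each plate; lower means fewer cells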
HSV replic up primary fold = further read-out of HSV replic up, marked with its call; fold increase; compound at 10 µM; measured here: primary screen fold increase 10 uM; tested in PC3 cells;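 GFP signal in the first replicate; 1 = infected wells without compound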
The depositor's hits bear a star; i = inactive; u = inconclusive; x = no result given.

molecule,Insulin prom inh cell count,HSV replic up,GALR2 agonist,Insulin prom inh,PKD1 inh,RGS16-Gao HTS,HSV replic up primary fold
CCc1ccccc1N(CC(=O)Nc1cccc(N(C)S(C)(=O)=O)c1)S(C)(=O)=O,65,i,-2.5,-306,-4,109,0.82
CN(CC(=O)N1CCOCC1)C(=O)CSc1nc2ccccc2s1,x,i,x,x,4,101,0.93
Cc1ccc(CSC2=Nc3ccccc3C3=NC(CC(=O)NCc4ccco4)C(=O)N23)cc1 (stereo not given),122,i,1.4,3,-4,96,0.91
CCC(=O)c1cc2c(C)cc(=O)oc2c(C)c1OC,x,i,-1.2,x,-11,99,0.96
O=C(NCC(=O)N(CC1CCCO1)C1(C(=O)NC2CCCC2)CCCCC1)c1ccccc1 (stereo not given),92,i,-2.4,-71,5,104,0.99
CC1Cc2ccccc2N1S(=O)(=O)c1cccc(C(=O)Nc2cccnc2)c1 (stereo not given),x,i,x,x,x,103,0.87
COc1ccc(CN2CCN(C(=O)C3CCN(S(=O)(=O)c4cccs4)CC3)CC2)c(OC)c1OC,140,i,x,48,-4,100,0.93
CN1CCN(S(=O)(=O)c2cccc(C(=O)Nc3nc(-c4ccccc4)cs3)c2)CC1,104,x,-1.5,10,-9,107,x
Cc1ccc(Nc2nc(N)nc(CSCCO)n2)cc1,125,i,-1.7,6,-3,179,0.98
COc1cc(-c2nc(C)c(C(C)=O)n2O)ccc1OCC(=O)Nc1ccc(F)cc1,136,i,x,-36,-7,98,0.7
CCC(Oc1ccccc1)C(=O)N1CCC(C(N)=O)CC1 (stereo not given),114,i,-2.2,8,1,101,1.1
COc1ccc(C)cc1NC(=O)c1nnn(Cc2cccc(F)c2)c1N,x,i,-1.1,x,1,72,0.87
Cc1cccc(-c2noc(CCC(=O)Nc3ccc(C(N)=O)cc3)n2)c1,x,i,x,x,x,104,0.93
CN1CCN(C(=O)c2cc3nc(-c4ccccc4)cc(-c4ccccc4)n3n2)CC1,37,i,0.8,-29,4,97,0.78
COC(=O)C(O)(NC(=O)NC(C)=O)C(F)(F)F (stereo not given),124,i,-2.6,12,-11,96,0.88
O=C(O)c1cc(C2CC2)nc2ccccc12,115,i,-2.0,43,5,40,0.73
CC(C)CCN1C(=O)c2ccc(C(=O)NCC3CCCO3)cc2C1=O (stereo not given),116,i,-2.2,62,-14,102,1
Cc1ccc(/C=C/S(=O)(=O)NCc2ccc(F)cc2)cc1,102,i,x,-31,0,99,1
Cc1occc1-c1nnc(SCC(=O)N2CCN(c3ccc(F)cc3)CC2)n1C,x,i,-1.2,x,-9,99,0.96
COc1cc(C(=O)NCCc2ccc(S(=O)(=O)N3CCCC3)cc2)cc(OC)c1OC,x,i,x,x,-3,99,1
CC(C)(C)Nc1nc2cc([N+](=O)[O-])ccc2o1,x,i,x,x,x,98,1
CSc1cccc(NC(=O)CN2C(=O)c3ccccc3S2(=O)=O)c1,x,i,-0.9,x,-16,112,0.93
CCOC1(OCC)C(c2ccc(N)cc2)C(C#N)(C#N)C1(OCC)OCC (stereo not given),x,i,-2.3,x,-9,88,1
CCCS(=O)(=O)C(=C(Nc1ccc(OC)cc1)Nc1ccc(OC)cc1)S(=O)(=O)CCC,125,i,0.3,-7,-5,100,0.88
O=C(N/N=C/c1cc(Br)ccc1O)C(=O)Nc1ccccc1OC(F)(F)C(F)F,56,i,-0.2,23,-1,99,0.66
Cc1ccc(/C=C/C(=O)Nc2ccc(Oc3ccccc3)cc2)o1,121,i,-1.7,45,0,90,1.1
Cc1cc(C)cc(N(CC(=O)NC(C)(C)C)C(=O)CNC(=O)c2cccs2)c1,x,i,x,x,-5,105,0.98
COc1ccc(C(=O)NC2CCN(C(=O)Nc3ccccc3Cl)CC2)cc1,57,i,x,-47,-10,100,0.93
COC(=O)Cn1nnc2c(cnn2-c2ccccc2)c1=O,x,i,x,x,4,101,0.91
COc1ccccc1/C=C/C1C(C(=O)OCC(C)C)=C(C)N=C2SCCC(=O)N21 (stereo not given),x,i,x,x,-3,97,1
CC(C)C(=O)Nc1cc(C(F)(F)F)ccc1-n1ccnc1,x,i,x,x,-7,100,0.95
C=CCNC(=O)C(=O)c1c(-c2ccccc2)[nH]c2ccccc12,122,i,-0.1,15,-4,83,1
COc1ccc(C2(C#N)CCC(=O)N2c2ccccc2)cc1 (stereo not given),x,i,x,x,x,116,0.9
CCOC(=O)C1=C(c2ccccc2)NC(SCC(=O)Nc2ccccc2C)=C(C#N)C1c1ccco1 (stereo not given),82,i,-0.1,19,-6,94,1
CN(C)c1ccc(NC(=O)COC(=O)CCC(=O)c2ccc(F)cc2)cc1,56,i,-0.7,3,3,94,0.96
Cc1ccc(-c2c(C(=O)NCc3ccc(F)cc3)oc(=O)c3ccccc23)cc1,94,i,-0.1,27,-11,104,1.1
CC(Sc1nnc(Nc2ccccc2)s1)C(=O)NC1CCCc2ccccc21 (stereo not given),193,i,-1.9,40,1,102,0.87
COc1ccc(C2=NN(CC(=O)NCc3ccco3)C(=O)CC2)cc1,108,i,-0.4,0,-3,102,0.91
COc1cc(OC)nc(-n2ncc(Br)c(Br)c2=O)n1,x,i,-2.3,x,8,103,0.47
Cc1ccc(-c2nc3ccccc3n3nnnc23)cc1,78,i,-1.0,-31,8,86,0.87
CCCCN(C)C(=O)C1CCN(CCCc2ccccc2)CC1,x,x,-0.1,x,-3,95,x
CC(C)c1ccc(O)c(NC(=O)c2cccnc2)c1,106,i,-1.8,34,-12,102,0.84
Cc1ccc(C)c(NC(=O)CSc2nnc(Cc3cccn3C)n2-c2ccc(F)cc2)c1,x,i,-0.4,x,-8,102,0.97
COc1ccc(OC)c(NC(=O)CSc2nnc(CNc3ccc(C)cc3C)o2)c1,x,i,-1.2,x,-3,88,1
COc1ccc(N(C)C(=O)c2oc(=O)c3ccccc3c2-c2ccccc2)c(OC)c1,x,i,x,x,x,93,0.88
Cc1nc2ccc(N=NN(C)C)cc2[nH]1,x,i,x,x,x,86,0.89
CCOC(=O)N1CCN(C(=O)CCCN2C(=O)CSc3nc(C)cc(C)c32)CC1,x,i,-2.6,x,5,74,0.91
CC(=O)c1c(C)[nH]c(C(=O)CSc2nnc(C)s2)c1C,67,i,x,0,1,99,0.91
O=c1[nH]c(Cc2ccccn2)nc2scc(-c3ccccc3Cl)c12,92,x,x,-12,-6,95,x
CC(C)C(NC(=O)CSCc1ccc([N+](=O)[O-])cc1)C(C)C,81,i,-0.4,-19,-10,62,1.1
CCc1cccc(NC(=O)CCCCCC2NC(=O)NC2C)c1 (stereo not given),156,i,x,20,12,106,0.85
COC(=O)c1ccc(Nc2cc(C)nc3ccc(C)cc23)cc1,x,i,x,x,x,101,0.73
O=C(Nc1ccc(F)cc1)OCCN1CCN(Cc2ccccc2)CCC1=O,94,u,-1.1,10,1,90,x
N/C(=N\OC(=O)CCC1CCCC1)c1ccccc1,x,i,x,x,4,104,0.95
O=C1C(Cc2ccccc2)NC(=S)N1Cc1ccccc1 (stereo not given),x,i,x,x,-4,100,0.99
CCCN(CCC)S(=O)(=O)c1ccc(C(=O)NNc2nc(-c3ccccc3)c3cc(Br)ccc3n2)cc1,186,i,0.2,0,-3,106,0.91
Cc1nc2c(ccc3nc(NC(=O)Cc4cccc5ccccc45)sc32)s1,119,x,0.7,41,-6,100,x
COc1ccc(-c2c(C#N)c(N)nc3c2CCCCCC3)cc1OC,198,i,-0.5,-19,-2,105,0.94
COc1ccccc1NC(C)C(=O)N/N=C/c1ccccc1OCc1cccc(Br)c1 (stereo not given),82,i,-0.4,43,-9,101,0.83
O=C1C2ON(c3ccccc3)C(c3cccnc3)C2C(=O)N1Cc1ccccc1 (stereo not given),x,i,-1.7,x,-6,97,0.75

Ordered by count of non-hydrogen atoms (ascending): four of the compounds above.
molecule,Insulin prom inh cell count,HSV replic up,GALR2 agonist,Insulin prom inh,PKD1 inh,RGS16-Gao HTS,HSV replic up primary fold
Cc1nc2ccc(N=NN(C)C)cc2[nH]1,x,i,x,x,x,86,0.89
Cc1ccc(-c2nc3ccccc3n3nnnc23)cc1,78,i,-1.0,-31,8,86,0.87
COc1ccc(-c2c(C#N)c(N)nc3c2CCCCCC3)cc1OC,198,i,-0.5,-19,-2,105,0.94
Cc1ccc(-c2c(C(=O)NCc3ccc(F)cc3)oc(=O)c3ccccc23)cc1,94,i,-0.1,27,-11,104,1.1

New compounds follow
molecule,Insulin prom inh cell count,HSV replic up,GALR2 agonist,Insulin prom inh,PKD1 inh,RGS16-Gao HTS,HSV replic up primary fold
CC(C)NS(=O)(=O)c1ccc(OCC(=O)Nc2cccc(F)c2)cc1,111,i,x,-488,-2,97,0.93
O=C(N1CCOCC1)C1(c2ccc(Cl)cc2)CCCC1,104,i,-2.9,4,9,99,1
COc1ccccc1-c1nnc(SCC(=O)N2CCC(C)CC2)o1,127,i,-4.1,38,-5,100,0.87
CC(C)CCN(C(=O)CNC(=O)c1ccco1)C(C(=O)NC1CCCCC1)c1ccco1 (stereo not given),90,i,-0.1,-3,-5,100,0.99
NCCc1nnc(SCC(=O)c2ccc(Cl)cc2)o1,x,i,x,x,x,99,1.3
COc1ccc(CNC(=O)Oc2ccccc2)cc1Cl,x,i,-2.6,x,6,99,0.85
CC(=O)NNc1nc(-c2ccc(NC(C)=O)cc2)cs1,x,i,-1.5,x,5,135,1.1
O=S(=O)(c1ccccc1F)N(Cc1ccco1)Cc1nnc(-c2ccccc2Br)o1,149,i,-0.2,-7,5,104,0.84
O=C(Nc1nc(-c2ccccc2)c(-c2ccccc2)s1)c1ccc(S(=O)(=O)N2CCCC2)cc1,x,x,-1.3,x,-1,63,x
COc1cccc(CN2CCNC(=O)C2CC(=O)NCCc2cccc(C)n2)c1OC (stereo not given),128,i,x,-22,2,107,1
Cc1ccc2c(c1)[nH]c1c(N3CCN(Cc4ccccc4)CC3)ncnc12,132,i,-1.5,-75,3,109,0.85
O=c1c2ccccc2nc(-c2ccccc2)n1Cc1ccco1,x,i,-1.2,x,-7,85,0.77
O=C(CSCc1ccc(Br)cc1)NC1CC1,x,i,x,x,-2,102,0.93
O=C(Cn1ncc2c(=O)oc3ccccc3c21)NCCCN1CCCC1=O,x,i,-4.7,x,-6,100,1
CN(C)S(=O)(=O)c1ccc(Cl)c(NC(=O)CN2C(=O)NC(C)(C3CC3)C2=O)c1 (stereo not given),x,i,x,x,x,99,1
CCOC(=O)c1cnc2c(C#N)c(C)nn2c1-c1ccccc1,x,i,-3.8,x,-3,97,0.99
Cn1c(N)c(C(=O)COC(=O)c2ncc(Cl)c(Cl)c2Cl)c(=O)n(C)c1=O,84,i,x,60,7,97,0.81
COc1cccc(NC(=O)NCc2ccccc2F)c1,109,i,x,32,5,98,0.96
CCOc1cc(/C=N/Nc2cc(C)nc(-n3nc(C)cc3C)n2)ccc1O,x,i,x,x,x,100,0.79
Cc1[nH]c2ccccc2c1CN1CCC(Cc2ccccc2)CC1,78,i,x,-20,1,99,0.77
COc1cc(CCC(=O)OCC(=O)Nc2nc(C)c(Cl)cc2Cl)cc(OC)c1OC,103,i,-3.6,-2,-5,99,0.95
Cc1ccc(C(=O)c2ccc(N3CCN(C)CC3)c([N+](=O)[O-])c2)cc1,94,i,-0.2,50,9,114,0.96
CC1=C(C(=O)Nc2ccccc2)C(c2ccncc2)C(C#N)=C(SCC(=O)NC2CC2)N1 (stereo not given),x,i,-0.4,x,-2,95,1
COc1ccc(Cn2nnnc2C(c2ccc3ncccc3c2)N2CCN(C3CCCCC3)CC2)cc1 (stereo not given),x,i,x,x,2,102,0.96
CN(C)C(=O)CSc1nc(SCC(=O)N(C)C)n(-c2ccccc2)n1,87,i,-1.0,-56,-67,106,0.79
O=C(CC1NCCNC1=O)OCCCc1ccccc1 (stereo not given),x,i,-0.9,x,-3,98,0.89
CCCCC(=O)Nc1ccc(NC(=O)c2ccc([N+](=O)[O-])cc2Cl)cc1OC,90,i,-1.2,7,-6,106,1.1
O=C1CCC(=O)c2oc3ccccc3c2N1,27,i,-2.2,0,-5,98,0.93
